# AID504770: growth inhibitors of E. coli YBA685 in a screen for V. cholerae RctB (chromosome II replication) inhibitors. E. coli YBA685 rctB-dependent plasmid, OD600 growth, 3 h; stronger effect = lower value. z-score (concentration not given with the values). 130,000 tested, 0.27% active. AID 504770;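 active = z-score under -2 on both plates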;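 also: wells of about 30 µL received 100 nL stock; score is relative to mean and SD of the test wells; the first replicate is given; strong numbers were not always called active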
# Ba CapD inh: inhibitors of Bacillus anthracis CapD enzyme; 140,000 tested, 0.23% active; z-score (no concentration beside the values); purified CapD enzyme, fluorescence intensity read-out; stronger effect = lower value; some hits fall short of the stated cut;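 active = z-score under -4 in either of two replicates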;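 also: stock transfer was 100 nL into about 40 µL; score is relative to mean and spread of the plate; one replicate is shown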
# The depositor's hits bear a star; i = inactive; nt = not tested or not shown.
# Start of the listing, in advance:
Compound | AID504770 | Ba CapD inh
O=C(COc1ccc2c3c(c(=O)oc2c1)CCC3)OCc1ccccc1 | 1 | 1.4
CCC1CCc2sc(C(=O)N=c3sccn3C)cc2C1 (centres undefined) | 0.45 | nt
CN(NC(=O)C(C)(C)C)c1nc(-c2ccccc2)nnc1C(F)(F)F | nt | -0.58
COC(=O)C1=C(C)NC2=C(C(=O)CC(c3ccc(OC)c(OC)c3)C2)C1c1cc(OC)c(OC)c(OC)c1 (centres undefined) | nt | 13
COc1cc([N+](=O)[O-])cc2c1NC(c1cccc(Cl)c1Cl)C1CC=CC21 (centres undefined) | nt | -0.47
Cn1c(O)c(/C=C2/C=Nc3ccccc32)c(=O)n(C)c1=O | 1.6 | -0.83

# All compounds of this part, from the start:
Compound | AID504770 | Ba CapD inh
O=C(COc1ccc2c3c(c(=O)oc2c1)CCC3)OCc1ccccc1 | 1 | 1.4
CCC1CCc2sc(C(=O)N=c3sccn3C)cc2C1 (centres undefined) | 0.45 | nt
CN(NC(=O)C(C)(C)C)c1nc(-c2ccccc2)nnc1C(F)(F)F | nt | -0.58
COC(=O)C1=C(C)NC2=C(C(=O)CC(c3ccc(OC)c(OC)c3)C2)C1c1cc(OC)c(OC)c(OC)c1 (centres undefined) | nt | 13
COc1cc([N+](=O)[O-])cc2c1NC(c1cccc(Cl)c1Cl)C1CC=CC21 (centres undefined) | nt | -0.47
Cn1c(O)c(/C=C2/C=Nc3ccccc32)c(=O)n(C)c1=O | 1.6 | -0.83
CCOC(=O)c1nnc(-c2ccc3c(c2)OCO3)o1 | -0.4 | 0.32
COc1ccc(N(C)C(=O)C(NS(=O)(=O)c2cccc3nsnc23)c2ccccc2)cc1 (centres undefined) | 0.85 | -0.2
Cn1c(=O)n(C2(C)CSC2)c2ccccc21 | 0 | nt
COC(=O)c1sc(SC)c(C(C)=O)c1C | nt | -0.79
CCC(C)(C)c1ccc(S(=O)(=O)N2CCCC2C(=O)OC(C)(C)C)cc1 (centres undefined) | nt | 0.12
COc1ccccc1OCC(O)CN1CCN(CC(=O)Nc2c(C)cccc2C)CC1 (centres undefined) | -0.1 | nt
CN(c1ccccn1)S(=O)(=O)c1cc(Cl)ccc1Cl | -0.25 | nt
O=C1NC2(CCCCC2)C(=O)N1c1ccc(Cl)cc1 | 2.1 | nt
CCNc1c(NC(=O)CC23CC4CC(CC(C4)C2)C3)c(=O)oc2ccccc12 | 2.9 | -1
Cc1nc(C(F)(F)F)ccc1C(=O)Sc1nnc(-c2ccc(C(F)(F)F)nc2C)o1 | 0.9 | -1.4
O=C1CCCC2=C1C(c1ccc(Br)cc1)C1=C(N2)c2ccccc2C1=O (centres undefined) | -0.5 | 0.045
O=C(Nc1ccc(Br)c(C(F)(F)F)c1)c1cccs1 | -0.2 | -1.1
CN(C)c1ccc(C2Nc3ccc4ccccc4c3C3=C2C(=O)CC(C)(C)C3)cc1[N+](=O)[O-] (centres undefined) | nt | 0.25
Cc1nn2c(-c3cccc(NC(=O)CN4CCOCC4)c3)nnc2c2ccccc12 | 1.1 | 0.43
CC(NC(=O)c1cccs1)C1CC2CCC1C2 (centres undefined) | 0.65 | 0.76
O=C(Nc1ccccc1-c1nc2ccccc2[nH]1)C1CC1 | 0.5 | i
O=C(CNCCCN1CCOCC1)Nc1cccc(C(F)(F)F)c1 | 2 | nt
C#CCSc1nc(COC)cc(=O)[nH]1 | -0.9 | 0.41
NC(=O)CSc1nc2c(c(=O)n1-c1ccccc1)SCC2 | -0.45 | -0.56
Cc1cc(C(=O)CS(=O)c2ccccc2)cc(C)c1OC(=O)N(C)C (centres undefined) | nt | 0.005
OC1C=CSc2nc3ccccc3n21 (centres undefined) | 0.3 | -0.3
CCc1ccc(CNC(=O)c2cnc(N3CCCC3)nc2)cc1 | 1.1 | 1.9
O=C1CCCC2=C1C(c1ccc(Cl)cc1Cl)C1=C(CCCC1=O)O2 | nt | 0.27
N#Cc1cccc(CS(=O)(=O)c2ccccn2)c1 | -1.1 | -0.18
COc1ccc(C2/C(=C(\O)c3ccccc3)C(=O)C(=O)N2c2nnc(C)s2)cc1 (centres undefined) | nt | -0.47
COC(=O)c1ccc(C(=O)OC)c(NC(=S)N2CCCC2)c1 | -1.1 | -0.045
COC(=O)/C=C/CSc1nnc(-c2ccc(Cl)cc2Cl)o1 | -0.25 | 0.17
Cc1ccc(S(=O)(=O)n2c([N+](=O)[O-])cnc2C)c(C)c1 | nt | -0.04
Cc1ccccc1-c1noc(N)c1C#N | -0.95 | 0.33
CCCOc1ccc(C(=O)NCC2COc3ccccc3O2)cc1OC (centres undefined) | 1.9 | -0.39
CCN(CC)CC(=O)N1N=C(c2cccs2)CC1c1ccccc1O (centres undefined) | 1.6 | nt
Nc1nc2c(C(=O)NCc3ccncc3)nnn2c2ccccc12 | 0.25 | 49
CCN(CC1COc2ccccc2O1)C(=S)Nc1ccccc1 (centres undefined) | -0.8 | -0.31
COc1ccc(S(=O)(=O)NCCc2cc3ccc(OC)cc3[nH]c2=O)cc1 | -0.35 | -0.52
O=c1[nH]nc(SCCS(=O)(=O)c2ccc(F)cc2)n1Cc1ccco1 | 1.1 | -0.01
CC1CC(C)CN(S(=O)(=O)Cc2ccccc2)C1 (centres undefined) | -0.3 | 1.1
CCc1ccc(N2C(=O)NC(=O)/C(=C\c3ccc(OCC(=O)O)c(Br)c3)C2=O)cc1 | nt | -0.57
Cc1cc[n+](CC(=O)N2CCCCC2)cc1 | -0.2 | nt
CC1CN(Cc2nc3c(Br)cc(Br)cc3c(=O)[nH]2)CC(C)O1 (centres undefined) | -0.1 | nt
CCN(CC)C(=O)c1sc(NC(=O)c2ccnn2C)c(C(=O)OC(C)C)c1C | nt | 1.8
COc1ccccc1NC(=O)COC(=O)C1CC1 | 1.1 | 0.59
Cc1ccc(-c2csc(Nc3ccccn3)n2)cc1 | -0.05 | -0.65
COc1ccc(NC(=O)N2Cc3ccccc3CC2C(=O)NC(C)(C)C)cc1 (centres undefined) | nt | -0.07
CC(C)Cc1ccc(S(=O)(=O)N2c3ccccc3CC2C)cc1 (centres undefined) | nt | -1.4
CCOc1ccc(C(=O)C(C)Sc2nc(-c3ccco3)c(C#N)c(=O)[nH]2)cc1 (centres undefined) | -0.4 | nt
Cc1ccc(-c2nnc(SCC#N)nc2-c2ccc(C)cc2)cc1 | 0.15 | nt
O=[N+]([O-])/C(C(Cl)=C(Cl)Cl)=C(\Nc1cccc2ccccc12)Sc1ccccc1 | nt | -0.1
O=C(O)/C=C/C(=O)N1CCN(c2ccc(C(F)(F)F)cn2)CC1 | 0.05 | 5.5
NC(=O)Cn1c(CN2CCC(Cc3ccccc3)CC2)nc2ccccc2c1=O | 0.25 | nt
COC(=O)c1c(C)oc(=O)c(Br)c1C | nt | 0.38

# The listing continues.
Compound | AID504770 | Ba CapD inh
O=C(Nc1nnc(C2CCCCC2)s1)C1CC(=O)N(c2ccccc2)C1 (centres undefined) | -0.5 | nt
CN(C)c1ccc2c3c(ccc(N(C)C)c13)[C@](O)(C(F)(F)F)O[C@]2(O)C(F)(F)F | 0.1 | 0.35
N#CC1(c2ccccc2)CCc2c(sc3ncnc(Cl)c23)C1 (centres undefined) | -0.55 | -0.47
O=C(/C=C/c1ccccc1)NC(=S)N1CCCCC1 | -0.05 | nt
C=CCNC(=O)COc1ccccc1 | -0.65 | 0.05
COc1nnnn1-c1ccccc1 | -1.6 | -0.27
CCOC(=O)c1oc2ccccc2c1COC(=O)c1cccc(C#N)c1 | 0.4 | nt
Cc1ccc2cc(C#N)c(SCC(=O)N3CCCC3)nc2c1 | 0.45 | nt
O=C(Nc1cc(Oc2cccnc2)cc([N+](=O)[O-])c1)c1cc2nc(-c3cccs3)cc(C(F)(F)F)n2n1 | nt | 0.15
CC(O)(CC(=O)O)C12CC3CC(CC(C3)C1)C2 (centres undefined) | -0.45 | 0.24
O=C(OCC(=O)N1CCN(c2ccccc2)CC1)c1cccc(F)c1 | -0.25 | nt
COc1cc(OC)cc(C(=O)NCc2ccc(-c3csnn3)cc2)c1 | nt | -0.03
Cc1c(C(=O)NCc2ccccn2)sc2ncnc(N3CCc4ccccc4C3)c12 | nt | 8.3
COC(=O)CCC(=O)Nc1ccc2oc3c(c2c1)CCCC3 | 2.3 | nt
O=C(OCC(=O)N1c2ccccc2Sc2ccccc21)c1ccco1 | 1.1 | 0.43
Cc1nn(CC(=O)NC2C3CC4CC(C3)CC2C4)c(=O)c(C#N)c1C (centres undefined) | 0.15 | nt
O=C(Nc1ccc(N2CCCCC2)cc1)c1cccs1 | 0.15 | nt
O=C1c2ccccc2C(=O)N1CC(=O)n1nnc2ccccc21 | -0.1 | nt
Cc1ccc(NC(=S)NN(C)C)cc1C | -0.2 | -0.27
COc1cc(OC)cc(N2CCN(C(=O)OCC3CCCCN3Cc3c(OC)ccc4ccccc34)CC2)c1 (centres undefined) | nt | 0.42
COc1ccc(CCNC2CC(=O)N(Cc3ccccc3)C2=O)cc1OC (centres undefined) | 0.5 | -1.1
COc1ccc(-n2ccnc2SCC(=O)Nc2ccccc2)cc1 | -0.9 | -1
O=C(COCc1cc(-c2ccc(F)cc2)on1)NCCN1CCCC1 | -1 | -0.27
O=C(NNc1ccccc1)c1cccs1 | nt | -0.095
O=C(NCCc1c[nH]c2ccccc12)c1ccc(Cl)c(S(=O)(=O)N2CCCC2)c1 | 1.4 | -0.015
N#CCn1c(=O)n(C2CCCCC2)c(=O)c2ccccc21 | 2 | nt
CCCC12CN3CC(C)(CN(C1)C31CCN(Cc3ccccc3)CC1)C2=O | 0.5 | -0.46
Cc1nnc(SC2CCN(S(=O)(=O)c3ccc4c(c3)OCCO4)CC2)s1 | -0.45 | -0.28
COc1ccc(NC(=S)c2nc(N3CCCCC3)sc2N)cc1 | 1 | nt
Cc1cc(C)n(CCCNC(=O)c2ccccc2CSc2ncn[nH]2)n1 | 0.45 | nt
Cn1cccc1C(=O)OCc1cc(=O)n2cc(Br)ccc2n1 | 0.15 | nt
Cc1nnc(Sc2cc(C(=O)NCCCN3CC(C)CC(C)C3)c3ccccc3n2)s1 (centres undefined) | -0.7 | 0.23
COc1ccc(-n2nnnc2-c2ccccc2)cc1 | 1 | 0.38
CCOC(=O)Oc1c(OC)cc(C(=O)OC2CC3CN4CCc5c([nH]c6cc(OC)ccc56)C4CC3C(C(=O)OC)C2OC)cc1OC (centres undefined) | nt | 1.3
COc1ccc(NC(=O)CSc2nc3ccccc3c(=O)n2CCc2ccc(S(N)(=O)=O)cc2)c(OC)c1 | nt | -0.85
CC(C)n1nccc1NC(=O)COC(=O)c1ccc(NC(N)=O)cc1 | 0.4 | nt
O=C(CN1C(=O)CC(c2ccccc2)Sc2ccccc21)NCc1ccccc1 (centres undefined) | -0.05 | -0.28
N#Cc1c(SCC(=O)c2ccc3c(c2)OCO3)sc2c(=O)[nH]c(=O)[nH]c12 | 1.4 | nt
CC1(C)c2ccccc2N2CC(=O)NC21/C=C/c1ccc(N2CCOCC2)cc1 (centres undefined) | -0.6 | 44
CN(C(=S)NCc1ccccc1)c1ccc(O)cc1 | -0.2 | nt
CC1(C)ONC(=O)N(c2ccccc2)C1=O | 0.3 | 0.02
O=c1cc(CSc2nnc(CN3CCCCC3)n2Cc2ccccc2)nc2sc3ccccc3n12 | -0.6 | nt
COc1ccc(-c2csc(-c3cc4cc(OC)ccc4oc3=O)n2)cc1 | nt | -0.55
O=C(CSc1nc2ccccc2c(=O)n1Cc1ccccc1)N1CCCC1 | -0.75 | -0.28
O=c1sc2ccccc2n1Cc1nnc(-c2ccccc2)o1 | 1 | nt
CCC(Sc1nc(NCCOC)c2ccccc2n1)C(=O)NCc1ccco1 (centres undefined) | nt | 0.73
C=CCNC(=S)N/N=C1\C=C(C)CC(C)(C)C1 | 0.8 | nt
Cc1cc(=O)n2[nH]c(NC(=O)c3ccc(C(C)(C)C)cc3)nc2n1 | -0.45 | -0.27
CC(C(=O)NCc1ccco1)n1nc(-c2ccccc2)c2cc(Cl)ccc21 (centres undefined) | 0.9 | 2.1
c1ccc(Sc2ncnc3c2sc2ncccc23)cc1 | -0.6 | 0.86
CC(C)NC(=O)CCCN1C(=O)c2ccccc2C1=O | -0.15 | -0.45
Cc1ccc(NC(=S)N(CCC#N)C2CCCCC2)cc1 | 0.1 | 0.045
CCC12c3ccccc3C(c3ccccc31)C1C(=O)N(c3ccc(Cl)c(C(=O)OC)c3)C(=O)C12 (centres undefined) | nt | -0.15
CC(C)c1cc(C(=O)Nc2cccnc2)no1 | -0.45 | -1.2
Oc1ccc(Br)cc1C=Nc1ccc2n[nH]nc2c1 | -0.4 | 45
O=C1c2ccccc2C(=O)C1C1c2ccccc2Oc2ccccc21 | -0.6 | -0.92

# Remaining list, next part:
Compound | AID504770 | Ba CapD inh
O=C(COC(=O)c1ccccc1C(=O)c1ccccc1)c1ccc(Cl)cc1 | 0.25 | -0.5
COc1ccc2c(c1)CC(C1(O)C(=O)N(C)c3ccccc31)C2=O (centres undefined) | 1.6 | 0.32
CC(=O)C1=NN(c2ccc(C)cc2)C2(S1)c1ccccc1C(c1ccccc1)=NN2c1ccccc1 (centres undefined) | nt | -0.27
Cc1cc(-c2csc(NC=C(C#N)C#N)n2)c(C)n1CCC(C)C | 0.2 | nt
CN(C)c1ccc(-n2c(=O)c3cc4c(=O)n(-c5ccc(N(C)C)cc5)c(=O)c4cc3c2=O)cc1 | 1.4 | -0.21
COc1ccc(CCN2C(=O)CC(NNc3ccccc3)C2=O)cc1OC (centres undefined) | 1.2 | nt

# Whole records from above. Order of screens: AID504770	Ba CapD inh
# `CCc1ccc(N2C(=O)NC(=O)/C(=C\c3ccc(OCC(=O)O)c(Br)c3)C2=O)cc1` is listed with nt	-0.57
# `O=C(CSc1nc2ccccc2c(=O)n1Cc1ccccc1)N1CCCC1` is listed with -0.75	-0.28
# `O=C(Nc1ccccc1-c1nc2ccccc2[nH]1)C1CC1` is listed with 0.5	i
# `CN(C)c1ccc2c3c(ccc(N(C)C)c13)[C@](O)(C(F)(F)F)O[C@]2(O)C(F)(F)F` is listed with 0.1	0.35
# `COC(=O)C1=C(C)NC2=C(C(=O)CC(c3ccc(OC)c(OC)c3)C2)C1c1cc(OC)c(OC)c(OC)c1` (centres undefined) is listed with nt	13

# Screening data as filed in PubChem BioAssay.
